Compound activity deposited in PubChem BioAssay by National Center for Advancing Translational Sciences (NCATS).
Cruzain Triton: blocks cruzain activity in presence of Triton detergent; P25779; purified cruzain, Z-FR-AMC fluorescence, 0.01% Triton; 200,000 compounds, 0.43% hits; AID 1478; Potency, µM, inactives show max response, negative = inhibition, most hits filed as inhibitors;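 also: plate controls were neutral wells for no effect and buffer without enzyme for full effect; nearly all actives have a fitted effect of over 40% in size; top concentration of the series not given in the record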
Target sequence (P25779 123-467 limits assumed): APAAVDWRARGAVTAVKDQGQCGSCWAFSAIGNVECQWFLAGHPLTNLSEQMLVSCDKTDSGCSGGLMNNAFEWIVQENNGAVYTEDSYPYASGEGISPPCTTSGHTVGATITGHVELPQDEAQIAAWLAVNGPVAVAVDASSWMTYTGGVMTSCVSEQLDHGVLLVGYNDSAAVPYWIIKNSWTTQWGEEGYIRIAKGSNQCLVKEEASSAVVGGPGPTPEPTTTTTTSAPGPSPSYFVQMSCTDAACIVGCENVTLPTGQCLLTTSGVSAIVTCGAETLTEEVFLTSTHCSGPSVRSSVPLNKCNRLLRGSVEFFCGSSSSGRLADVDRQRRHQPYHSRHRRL
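Compounds were screened in titration against cruzain (1.5 nM) with 0.01% Triton X-100 to counter colloidal aggregation. Activity was the AMC fluorescence increase over 60 s after adding 2 uM Z-FR-AMC at pH 5.5.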
Cruzain noTriton: cruzain (T. cruzi) inhibition without detergent | Potency, µM, for inactives: max response, negative = inhibition, actives largely listed as inhibitors | 200,000 compounds, 2.3% hits | P25779 | purified cruzain, Z-FR-AMC fluorescence, no detergent;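 also: plate controls were enzyme without inhibitor for no effect and buffer without enzyme for full effect; nearly all actives have a fitted effect of over 40% in size; top concentration of the series not given in the record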
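Purified cruzain at 1.5 nM, pre-incubated 15 min with compound at room temperature in 100 mM sodium acetate pH 5.5, 5 mM DTT, 0.00005% Triton X-100. Reaction started with 2 uM Z-FR-AMC; AMC fluorescence increase over 60 s gives rate.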
StopGo reporter: lowers the luciferase signal of an FMDV 2A StopGo reporter | 410,000 compounds, 1.2% hits | Potency, µM (top dose mostly 57.9 µM), for inactives: at the top dose signal change, negative = less light | human cells with a luciferase reporter of 2A StopGo recoding; control for the full effect not named in the record | AID 1159524; active = well fitted falling curve with a large enough effect; inconclusive = small, poorly fitted or top-dose-only effect; inactive = no such curve, though single readings can be large or run the other way; tested in HEK293T cells; also: nearly all actives have a fitted effect of over 45% in size; luciferase light after 4 h
* hit, by the source's call; u = inconclusive; & = joins results of further samples; [ ] = remark or other dose. Unless noted, calls follow the shape of the dose curve; as a rule, active = well fitted curve in the direction sought with a large enough effect; inconclusive = small, poorly fitted or top-dose-only effect, or another doubt; inactive = no such curve, though single readings can be large; an effect the other way counts as inactive or inconclusive. Unless noted, % is scaled to controls: 0 for no effect and ±100 for the full control effect; potency is read from the fitted curve at half-maximal effect.

SMILES	Cruzain Triton	Cruzain noTriton	StopGo reporter
O=c1c(-c2cccs2)nc2cnc(N3CCOCC3)nc2n1Cc1ccc(F)cc1	-0.2%	2.2%	-13.4%
Cc1noc(C)c1-c1nccc(N2CCNCC2)n1	-0.5%	0.2%	-12.7%
CN(C)Cc1ccccc1-c1cc(-n2ccnc2)ncn1	0.0%	-2.3%	-0.9%
CN(C)c1ccnc(-c2cccc(NS(C)(=O)=O)c2)n1	2.9%	3.5%	38.5%[activator]
O=S(=O)(c1ccccc1)N1CCC2(CCN(c3ccc(-c4ccccc4)cc3)CC2)CC1	5.9%	u	-19.9%
CCNc1ncc2nc(C)c(=O)n(Cc3cccc(OC)c3)c2n1	0.7%	9.4%	0.5%
CC1OC(=O)C(C(C)C)NC(=O)C(C(C)C)OC(=O)C(C(C)C)NC(=O)C(C)OC(=O)C(C(C)C)NC(=O)C(C(C)C)OC(=O)C(C(C)C)NC(=O)C(C)OC(=O)C(C(C)C)NC(=O)C(C(C)C)OC(=O)C(C(C)C)NC1=O (stereo not drawn)	0.0%	-1.7%	-23.0%[27 µM]
Cc1cc(/C=C/c2ccc3cc(N(C)C)ccc3[n+]2C)c(C)n1-c1ccccc1	-18.1%	-2.0%	14.1µM*
N#Cc1cccc(-c2nc(NCCN3CCOCC3)c3ccccc3n2)c1	3.8%	7.0%	18.6%
CN1CCN(c2ncc3nc(-c4cc(F)cc(F)c4)c(=O)n(CCC#N)c3n2)CC1	-6.1%	20.6%	-24.0%
COc1ccc2[nH]cc(CCNc3cc(-c4ccccc4CN(C)C)ncn3)c2c1	-1.6%	-1.8%	-6.4%
COCCNc1ncnc2ccc(-c3cccnc3)cc12	4.8%	0.5%	-22.4%
CC1(C)C(=O)NC2=C1C(=O)C(=O)c1ccccc12	-29.6%	u	14.1µM*
COc1ncc2nc(-c3cc(F)cc(F)c3)c(=O)n(-c3ccccc3)c2n1	-0.5%	-13.7%	8.5%
CN(C)c1ccc(-c2ccc3ncnc(N4CCNCC4)c3c2)cc1	-4.7%	0.5%	41.6%[activator]
COc1ccc(C(=O)N2CCC3(CC2)CCN(c2ccccn2)CC3)cc1	2.1%	4.9%	u
COc1ccc(-c2nc3cnc(N4CCOCC4)nc3n(CCC#N)c2=O)cc1	1.7%	7.0%	-4.8%
CC(C)c1ccc2c(c1O)CCC1C3=C(CC[C@]21C)C(=O)OC3 (stereo partly drawn)	2.1%	-8.3%	u
CC(=O)N1CCC2(CC1)CCN(c1ccncc1)CC2	0.0%	-3.4%	-10.0%
CC(C)CN1CCCC2(CCN(C(=O)c3ccncc3)CC2)C1	-2.0%	7.9%	-10.7%
CN(C)CCCn1cc(C2=C(c3c[nH]c4ccccc34)C(=O)NC2=O)c2ccccc21	-8.1%	-0.3%	-19.3%
Cc1noc(C)c1C(=O)N1CCC[C@@]2(CCN(c3ncccn3)C2)C1	4.1%	4.6%	-8.2%
Cc1cc(O)c2c(c1O)C(=O)C(O)=C(O)C2=O	-11.4%	-19.4%	-19.2%
COc1cccc(Cn2c(=O)c(-c3cc(F)cc(F)c3)nc3cnc(N4CCOCC4)nc32)c1	7.0%	-12.1%	0.1%
NC1C(O)OC(CO)[C@@H](O)[C@@H]1O[C@H]1O[C@@H](C(=O)O)C(O)C(O)C1O (stereo partly drawn)	-1.4%	-4.8%	-2.6%
COCCNc1nc(-c2cccc(OC)c2)nc2ccccc12	3.2%	3.9%	-11.3%
Cn1c(=O)c(-c2cc(F)cc(F)c2)nc2cncnc21	-3.1%	-10.5%	-19.5%
COc1cc2c(cc1OC)C(=O)OC2	1.7%	-5.1%	3.3%
FC(F)(F)c1ccccc1-c1cc(N2CCNCC2)ncn1	2.7%	-10.5%	-5.5%
Cc1noc(C)c1-c1cncnc1N1CCN(C)CC1	6.4%	6.5%	-22.4%
FC(F)(F)c1ccccc1-c1ccc2ncnc(NCCN3CCOCC3)c2c1	2.9%	14.9%	-11.9%
Cn1cccc1C(=O)N1CCC2(CCCN(c3ccccc3)C2)CC1	-5.1%	19.2%	-12.4%
COc1ccc2[nH]cc(CCNc3ncnc4ccc(-c5ccc6c(c5)OCO6)cc34)c2c1	-0.3%	31.6µM*	0.0%
COc1ccc(C(=O)N2CCC3(CC2)CN(c2ccccn2)C3)cc1	-6.3%	-10.5%	u
COc1ccc(-n2c(=O)c(-c3cccs3)nc3cnc(N4CCN(C)CC4)nc32)cc1	-6.5%	4.9%	-9.6%
COC(=O)C[C@](O)(CCCC(C)(C)O)C(=O)O[C@@H]1C(OC)=C[C@]23CCCN2CCc2cc4c(cc2[C@H]13)OCO4	1.3%	16.0%	u
O=c1c(-c2cc(F)cc(F)c2)nc2cncnc2n1Cc1ccccc1	-4.7%	-2.1%	-14.3%
CN(C)/N=N/c1nc[nH]c1C(N)=O	-7.2%&2.3%	1.5%&10.7%	25.0%
CN1C(=O)N(C)C2=NNC=NC2(O)C1=O (stereo not drawn)	-5.7%	-2.8%	u
O=C1NC(=O)c2c1c1c3ccccc3[nH]c1c1[nH]c3ccccc3c21	-0.6%	8.91µM*	u
COc1ccccc1CNc1ncnc2ccc(-c3ccccc3CN(C)C)cc12	-7.7%	8.6%	-8.6%
CC(C)NC(=O)N1CCC2(CC1)CCN(S(C)(=O)=O)CC2	5.8%	0.1%	-4.7%
COc1cc(-c2coc3cc(OCc4ccccc4)c(OC)c(O)c3c2=O)cc(O)c1OC	-3.0%	u	2.8%
COc1ccc2[nH]cc(CCNc3nc(-c4cccc(C#N)c4)nc4ccccc34)c2c1	-2.0%	-29.7%	-16.5%
CNc1nc(-c2cccc(C#N)c2)nc2ccccc12	-5.3%	-7.3%	-4.1%
O=S(=O)(c1ccccc1)N1CCC2(CCN(C(c3ccccc3)c3ccccc3)CC2)CC1	-2.2%	0.7%	-11.9%
N#Cc1cccc(-c2nccc(-n3ccnc3)n2)c1	1.9%	-1.2%	-6.6%
O=C(c1cnccn1)N1CCC2(CC1)CCN(c1ncccn1)CC2	-1.2%	1.2%	-12.6%
N#Cc1cccc(NC(=O)N2CC3(CCN(C(=O)c4cnccn4)CC3)C2)c1	-2.3%	-11.8%	-4.4%
FC(F)(F)c1ccccc1-c1nc(NC2CC2)c2ccccc2n1	3.1%	15.4%	-17.3%
Cc1cnc(CNc2nc(-c3c(C)noc3C)nc3ccccc23)cn1	-3.2%	11.9%	-12.9%
Cc1ccccc1-c1cc(N(C)Cc2ccco2)ncn1	3.0%	-9.8%	4.2%
O=C(Cc1ccccc1)Nc1nc2ccc(Cl)cc2c2nc(-c3ccco3)nn12	3.0%	9.1%	-8.9%&-19.5%
O=S(=O)(O)c1cc(N=C=S)ccc1/C=C/c1ccc(N=C=S)cc1S(=O)(=O)O	-4.2%	-17.1%	4.1%
COc1ccc(-n2c(=O)c(C)nc3cnc(Oc4ccccc4)nc32)cc1	1.2%	0.6%	-9.1%
C=C1C[C@H](OC(=O)C(C)(O)CCl)C2C(=C)C(=O)O[C@@H]2C2C1C[C@H](O)[C@]2(O)CCl (stereo partly drawn)	0.8%	-16.0%	-2.5%
CC1=CC2C(C(C)C)CCC(C)(O)C2CC1 (stereo not drawn)	2.9%	-2.0%	-3.8%
CCc1cc2c(c(CC)n1)CCC(=O)N2Cc1ccc(-c2ccccc2-c2nn[nH]n2)cc1	-0.5%	5.8%	-14.5%
COc1ccccc1CN1CCC2(CC1)CCN(C(=O)c1c(C)noc1C)CC2	2.2%	-6.7%	-5.3%
O=c1[nH]c(Cl)nc2c1ncn2C1OC(CO)C(O)C1O (stereo not drawn)	4.6%	1.5%	9.2%

Remaining list, next part
SMILES	Cruzain Triton	Cruzain noTriton	StopGo reporter
COc1ccccc1CN1CCC2(CC1)CCN(C(=O)c1cccc(F)c1)CC2	0.6%	-15.8%	-17.0%
Cc1c(O)cc(O)c2c(=O)c(-c3ccc(O)cc3)coc12	11.6%	-1.1%	3.5%
O=c1c(-c2ccccc2)nc2cncnc2n1Cc1ccc(F)cc1	-5.5%	-14.5%	-17.6%
CC(=O)N1CCN(C)CC1	0.3%	-0.1%	-13.6%&-21.8%
N[C@@H](C(=O)O)[C@H](CC(=O)O)c1ccc(Cl)cc1	-0.1%	-2.9%	-10.5%
NCC1O[C@@H](OC2C(N)CC(N)C(O)C2O[C@@H]2OC(CO)C(O)C2O)C(N)C(O)C1O (stereo partly drawn)	-1.4%	-0.7%	u
CCCCCCCCCCCCCCCCOC[C@H](COP(=O)([O-])OCC[N+](C)(C)C)OC(=O)NC	-4.5%	u	-10.5%[6.7 µM]
O=C(c1cc(C(F)(F)F)cc(C(F)(F)F)c1)N1CCC2(CCCN(Cc3nccs3)C2)CC1	-0.1%	17.3%	-6.5%
COc1cc(OC)c2c(OC)c(-c3ccc4c(c3)OCO4)c(=O)oc2c1	-8.8%	-7.0%	13.2%
CN(C)c1nc(-c2cccc(C#N)c2)nc2ccccc12	2.7%	-7.1%	-9.8%
N[C@@H](Cc1cc(CP(=O)(O)O)cc(-c2ccccc2Cl)c1)C(=O)O	-2.4%	8.4%	-9.8%
O=c1c(-c2ccc(F)cc2)nc2cnc(N3CCNCC3)nc2n1Cc1cccs1	0.5%	-13.4%	4.3%
O=c1c(-c2cccc(Cl)c2)nc2cncnc2n1Cc1ccc(F)cc1	5.4%	-5.0%	-12.7%
COC1=C[C@]23CCCN2CCc2cc4c(cc2[C@@H]3[C@@H]1O)OCO4	5.0%	-8.4%	-12.3%
O=C(Nc1cccc(F)c1)N1CCC2(CC1)CCN(C(=O)c1ccco1)CC2	0.1%	-1.5%	0.9%
O=C(c1ccco1)N1CCC[C@@]2(CCN(C(c3ccccc3)c3ccccc3)C2)C1	-0.2%	-5.4%	6.7%
COc1cc(O)c2c(=O)c(O)c(-c3ccc(O)c(O)c3)oc2c1	-16.9%	u	6.5%
COc1ncc2nc(-c3ccc(F)cc3)c(=O)n(C)c2n1	3.3%	9.4%	9.7%

Among those listed so far, 16 contain fluorine:
SMILES	Cruzain Triton	Cruzain noTriton	StopGo reporter
O=c1c(-c2cccs2)nc2cnc(N3CCOCC3)nc2n1Cc1ccc(F)cc1	-0.2%	2.2%	-13.4%
CN1CCN(c2ncc3nc(-c4cc(F)cc(F)c4)c(=O)n(CCC#N)c3n2)CC1	-6.1%	20.6%	-24.0%
COc1ncc2nc(-c3cc(F)cc(F)c3)c(=O)n(-c3ccccc3)c2n1	-0.5%	-13.7%	8.5%
COc1cccc(Cn2c(=O)c(-c3cc(F)cc(F)c3)nc3cnc(N4CCOCC4)nc32)c1	7.0%	-12.1%	0.1%
Cn1c(=O)c(-c2cc(F)cc(F)c2)nc2cncnc21	-3.1%	-10.5%	-19.5%
FC(F)(F)c1ccccc1-c1cc(N2CCNCC2)ncn1	2.7%	-10.5%	-5.5%
FC(F)(F)c1ccccc1-c1ccc2ncnc(NCCN3CCOCC3)c2c1	2.9%	14.9%	-11.9%
O=c1c(-c2cc(F)cc(F)c2)nc2cncnc2n1Cc1ccccc1	-4.7%	-2.1%	-14.3%
FC(F)(F)c1ccccc1-c1nc(NC2CC2)c2ccccc2n1	3.1%	15.4%	-17.3%
COc1ccccc1CN1CCC2(CC1)CCN(C(=O)c1cccc(F)c1)CC2	0.6%	-15.8%	-17.0%
O=c1c(-c2ccccc2)nc2cncnc2n1Cc1ccc(F)cc1	-5.5%	-14.5%	-17.6%
O=C(c1cc(C(F)(F)F)cc(C(F)(F)F)c1)N1CCC2(CCCN(Cc3nccs3)C2)CC1	-0.1%	17.3%	-6.5%
O=c1c(-c2ccc(F)cc2)nc2cnc(N3CCNCC3)nc2n1Cc1cccs1	0.5%	-13.4%	4.3%
O=c1c(-c2cccc(Cl)c2)nc2cncnc2n1Cc1ccc(F)cc1	5.4%	-5.0%	-12.7%
O=C(Nc1cccc(F)c1)N1CCC2(CC1)CCN(C(=O)c1ccco1)CC2	0.1%	-1.5%	0.9%
COc1ncc2nc(-c3ccc(F)cc3)c(=O)n(C)c2n1	3.3%	9.4%	9.7%

This is a subset. The share of hits here may be higher or lower than overall.
